Rango release inh – inhibition of RanGTP-driven Rango-importin beta dissociation; Potency, µM (top dose mostly 46.1 µM), inactives show at the top dose activity change, negative = inhibition; AID 540253; O95149+P62826; 340,000 compounds, 0.071% hits; Biochemical FRET Rango-importin beta, RanGTP-induced dissociation; active means falling FRET ratio curve, often poorly fitted, with flat reads before Ran was added; inconclusive means other falling curves, or compound fluorescence or quenching; inactive means flat or rising ratio curve;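 further: potency means the concentration at half of the fitted maximal effect; % of control where 0% means no effect; nearly all actives have a fitted effect of over 45% in size; -100% = wells without RanGTP and RCC1; the record marks most hits as doubtful in a second field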
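Rango FRET biosensor (snurportin-1 IBB flanked by N-terminal EYFP and C-terminal CFP10) at 0.1 uM, with 0.25 uM importin beta in PBS, 1mM DTT, 0.02% Tween-20, 0.1% BSA. 0.6 uM Ran, 2mM GTP and 0.2 uM RCC1 were then added for 45 min at room temperature. Inhibition read as loss of FRET rise.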
GLA inh pH 4.5 – inhibitors of human alpha-galactosidase A at pH 4.5; 230,000 tested, under 10 active; P06280; activity change, negative = inhibition, % at 105 µM; purified enzyme, 4-MU-alpha-Gal fluorescence, pH 4.5; inconclusive = small, poorly fitted or top-dose-only inhibition, or a rising curve; inactive = flat fitted curve, though single readings scatter; no compound was filed as active;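 further: 0% = full activity with enzyme and -100% = basal without enzyme; dose as in the result columns while the protocol names 77 µM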
Target sequence (P06280 whole entry, looked up): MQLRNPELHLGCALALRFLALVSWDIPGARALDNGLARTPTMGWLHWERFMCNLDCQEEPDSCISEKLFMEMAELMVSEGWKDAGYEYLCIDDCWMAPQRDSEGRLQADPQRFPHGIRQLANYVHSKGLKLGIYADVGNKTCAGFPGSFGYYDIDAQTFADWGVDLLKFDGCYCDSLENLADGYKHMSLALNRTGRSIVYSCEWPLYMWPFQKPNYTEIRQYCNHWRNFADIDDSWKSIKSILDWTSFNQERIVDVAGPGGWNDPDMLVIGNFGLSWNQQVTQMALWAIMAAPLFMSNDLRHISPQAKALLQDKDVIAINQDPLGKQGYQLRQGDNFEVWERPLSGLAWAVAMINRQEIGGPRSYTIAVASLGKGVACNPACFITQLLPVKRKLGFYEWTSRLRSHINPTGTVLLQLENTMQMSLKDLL
miR-21 FLuc – raises the signal of a miR-21 reporter; HeLa miR-21 FLuc reporter, luciferase, 48 h; Potency, µM (highest dose often 38.3 µM), for the others: at the top dose reporter change, positive = more light; 340,000 tested, under 10 active; active = well fitted rising curve with a large enough effect; inconclusive = small, poorly fitted or top-dose-only effect; inactive = no such curve, though single readings can be large or run the other way;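 further: % of control where 0% means no effect; miR-21 action dims this reporter so a rising signal means less miR-21 action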
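Using DMEM plus 10% FBS, HeLa miR-21-FLuc cells are incubated with test compounds (final up to about 40uM) for 48 hours; firefly luciferase signal is then imaged following reagent-mediated lysis.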
Rango complex inh – inhibitors of Rango-importin beta complex formation | Q14974 | Rango CFP/YFP FRET sensor + importin beta, 45 min | Potency, µM (series often up to 92.2 µM), without a hit: at the top dose inhibition of complex formation | 340,000 compounds, 0.031% hits | AID 540263; active = rising FRET ratio curve, often small or poorly fitted; inconclusive = mostly compound fluorescence or quenching in the first reads; inactive = flat curves in all reads;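 further: potency means the concentration at half of the fitted maximal effect; 0% = DMSO wells and 100% = buffer wells lacking importin beta; nearly all actives have a fitted effect of over 15% in size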
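FRET biosensor Rango (snurportin 1 IBB between N-terminal EYFP and C-terminal Cerulean), 50 nM in PBS/1 mM DTT/0.02% Tween-20/0.1% BSA, preincubated 5 min RT with compound; 0.125 microM importin beta added, 45 min RT, CFP/YFP FRET ratio read.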
The depositor's hits bear a star; ? = inconclusive; · = not tested or not shown; & = joins results of further samples; [ ] = another dose, or the depositor's remark. These rows are one share of the data, so the mix of outcomes need not match the whole.

mol	Rango release inh	GLA inh pH 4.5	miR-21 FLuc	Rango complex inh
CC12CC[C@H]3[C@@H](CCC4(O)C[C@H](O)CCC34/C=N/NC(=O)c3ccccc3F)C1(O)CCC2C1=CC(=O)OC1 (stereo partly drawn)	0%	-3	27%	1.2%
CN1[C@@H]2CC(OC(=O)[C@H](CO)c3ccccc3)C[C@H]1[C@@H]1O[C@@H]12 (stereo partly drawn)	-12%&-2%&-4%&0%	·	0%&-4%	?
O=C(c1cc(=O)[nH]c2ccc(Br)cc12)N1CCC2(CC1)OCCO2	-2%	-1	-2%	?
COC(=O)C1=COC(C)C2CN3CCC4(C(=O)Nc5ccccc54)C3CC12 (stereo not drawn)	-12%	7	2%	0.7%
O=C1NC(=S)N(Cc2ccco2)C(=O)/C1=C\c1cccs1	·	-20	-4%	·
Cc1c(NC(NC(=O)CF)C(Cl)(Cl)Cl)c(=O)n(-c2ccccc2)n1C (stereo not drawn)	1%	2	4%	2.4%
CC(C)Oc1ccc(Cc2c(O)[nH]c(=O)[nH]c2=O)cc1	2%	1	0%	7.9%
OC1/C(=C/c2ccc(F)cc2)N2CCC1CC2 (stereo not drawn)	-2%	-6	-8%	-2.6%
O=C(CN1CCCC1)Nc1ccc(NC(=O)Nc2ccccc2)cc1	1%	-7	-46%	0.3%
Nc1ccccc1Cl	-3%	·	·	-0.1%
C[C@H](NC(=O)N1C[C@H]2C[C@@H](C1)c1cccc(=O)n1C2)C(=O)Nc1ccccc1F	3%	·	2%	-0.4%
CN1CCN(c2ccc(F)cc2N)CC1	-22%	-4	3%	-1.6%
CC(=O)Nc1ccccc1OP1(=O)COc2ccccc2OC1	0%	5	-1%	1.7%
CS(=O)(=O)N1CCCC(C(=O)N2CCC3(CC2)OCCO3)C1 (stereo not drawn)	-16%	0	-4%	2.1%
CCC(C)C1NC(=O)C(NC(=O)C(CC(C)C)N(C)C(=O)C2CCCN2C(=O)C(C)O)C(C)OC(=O)C(Cc2ccc(OC)cc2)N(C)C(=O)C2CCCN2C(=O)C(CC(C)C)NC(=O)[C@H](C)C(=O)[C@H](C(C)C)OC(=O)CC1O (stereo partly drawn)	-9%	·	·	-0.9%

4 compounds out of the list, ordered by length of the SMILES, low to high:
mol	Rango release inh	GLA inh pH 4.5	miR-21 FLuc	Rango complex inh
CN1CCN(c2ccc(F)cc2N)CC1	-22%	-4	3%	-1.6%
OC1/C(=C/c2ccc(F)cc2)N2CCC1CC2 (stereo not drawn)	-2%	-6	-8%	-2.6%
CC(=O)Nc1ccccc1OP1(=O)COc2ccccc2OC1	0%	5	-1%	1.7%
O=C(CN1CCCC1)Nc1ccc(NC(=O)Nc2ccccc2)cc1	1%	-7	-46%	0.3%

(list continues)
mol	Rango release inh	GLA inh pH 4.5	miR-21 FLuc	Rango complex inh
O=C(C1CC(=O)N(C2CCCCCCC2)C1)N1CCC2(CC1)OCCO2 (stereo not drawn)	-2%	7	-11%	-5.3%
NNC(=O)c1ccc(O)cc1	-6%	3	·	0.6%
Cc1nn(Cc2ccccc2Cl)c(C)c1C(=O)OCC(=O)N1CC(C)OC(C)C1 (stereo not drawn)	-6%	-3	-11%	3.8%
Cc1c(N)c(C)c([N+](=O)[O-])c(C)c1[N+](=O)[O-]	6%	-1	-3%	0.6%
CN(CC(=O)Nc1ccccc1-c1ccccc1)C1CCCCC1	1%	-13	-2%	-1.7%
CC1CC2(C)C(=CC1=O)CCC1C3CCC(C)(O)C3(C)CC3OC312 (stereo not drawn)	-3%	·	·	-0.7%
CCC(=O)N1CC(=O)Nc2ccc(F)cc2C1c1ccc(F)cc1 (stereo not drawn)	41%	·	1%	-2.6%
O=C1N(c2cccc(Cl)c2)C(c2cccnc2)N2CCCN12 (stereo not drawn)	6%	4[21.1 µM]	-5%	1.3%
Cc1c(C=O)c2ccccc2n1Cc1cccc(F)c1	2%	-18	-9%	0.4%
CN(C)C(=O)Oc1ccc(Cl)c2cccnc12	2%	0	2%	-2.2%
O=C(O)c1ccc(-n2c(O)c(/C=C3\C=Nc4ccccc43)c(=O)[nH]c2=O)cc1	-20%	·	5%	?
CCc1c(C)nc(N)nc1N1N=C1SCC(N)=O	2%	-5	7%	1.2%
COc1ccc(C(=O)C2CCCN(Cc3ccon3)C2)cc1OC (stereo not drawn)	-1%	5	-3%	1.6%
Cc1ccccc1C(=O)NC(Oc1ccccc1)C(Cl)(Cl)Cl (stereo not drawn)	-7%	-10	-2%	3.2%
NCCc1c[nH]c2ccccc12	-3%	-1&-8&-8	-1%	4.0%

(next part)
mol	Rango release inh	GLA inh pH 4.5	miR-21 FLuc	Rango complex inh
Cc1cc(NCCN)nc2ccccc12	0%	-3	0%	?
Cc1nn(CC(=O)N2CCC3(CC2)OCCO3)c(=O)c2cc3ccccc3n12	-2%	·	-2%	-0.4%
Cc1cc(Cl)ccc1OCCCC(=O)NCc1cccs1	-16%	-3	9%	0.4%
C/C(=N\NC(=O)c1ccncc1)c1c(O)[nH]c(=O)[nH]c1=O	-2%	·	·	1.5%
CCN(C(=O)COC(=O)C(O)(c1ccccc1)c1ccccc1)c1c(N)n(Cc2ccccc2)c(=O)[nH]c1=O	15%	·	·	0.8%
COc1cc(NC(=O)CN2C3CCC2CC(O)(c2cccnc2)C3)cc(OC)c1 (stereo not drawn)	4%	-6	-5%	?
Cn1cccc1/C=C1/C(=O)NC(=O)N(C(C)(C)C)C1=O	-9%	1	2%	?
COc1ccc(O)c(C(=O)c2cnn(-c3ccccn3)c2)c1	-10%	7	-36%	-0.6%
Oc1ccc(Br)cc1CN1CCN(c2ccccc2)CC1	0%	-5	-10%	1.5%
CC(=O)OC1CCC2(C)C3CCC4(C)C(OC(C)=O)CCC4C3C(C)C2(O)C1 (stereo not drawn)	1%	·	·	-1.4%
O=C(NP(=O)(N1CC1)N1CC1)c1cc(I)ccc1I	-13%	·	·	-3.2%
CN(C)C1(CNC(=O)Cc2ccccc2F)CCCCC1	-8%	·	-4%	3.3%
COC(=O)C(O)(c1ccc(N(C)C(=O)OC(C)C)cc1)C(F)(F)F (stereo not drawn)	1%	7	-6%	3.8%
COc1ccc(N2C(=O)/C(=C/C=C/c3ccccc3[N+](=O)[O-])C(=O)NC2=S)cc1	7%	-9	1%	-0.7%
CN1CCN(c2cn[nH]c(=O)c2Cl)CC1	0%	-7	-5%	0.6%

An excerpt from above with just Rango release inh, GLA inh pH 4.5 and Rango complex inh.
SMILES | Rango release inh | GLA inh pH 4.5 | Rango complex inh
CC(=O)OC1CCC2(C)C3CCC4(C)C(OC(C)=O)CCC4C3C(C)C2(O)C1 (stereo not drawn) | 1% | · | -1.4%
CN(C)C1(CNC(=O)Cc2ccccc2F)CCCCC1 | -8% | · | 3.3%
C/C(=N\NC(=O)c1ccncc1)c1c(O)[nH]c(=O)[nH]c1=O | -2% | · | 1.5%
COC(=O)C(O)(c1ccc(N(C)C(=O)OC(C)C)cc1)C(F)(F)F (stereo not drawn) | 1% | 7 | 3.8%

Remaining list, next part.
mol	Rango release inh	GLA inh pH 4.5	miR-21 FLuc	Rango complex inh
CN(C)c1ccc(/C=C2/C(=O)NC(=O)N(CCc3ccc(F)cc3)C2=O)cc1	-15%	6	0%	?
Cc1ccc(-n2c(O)c(C=NCC3CCCO3)c(=O)[nH]c2=O)c(C)c1 (stereo not drawn)	0%	3	3%	-0.4%
CC(C)CNP(=S)(c1ccccc1)C(C)(C)C (stereo not drawn)	9%	-5	7%	-3.0%
C[C@]12CC[C@H](N)CC1=CCC1C2CC[C@@]2(C)C1CC[C@@H]2O (stereo partly drawn)	-2%	·	·	-0.7%
O=c1[nH]c(=O)n(Cc2ccco2)c(O)c1C=NCCN1CCOCC1	6%	-5	0%	-0.7%
COc1cc(C2c3cc(O)c(OC)cc3CC3C(=O)OCC32)ccc1O (stereo not drawn)	2%	·	·	-0.1%
COc1cccc(C(=O)C2CCCN(Cc3ccon3)C2)c1 (stereo not drawn)	-5%	6	5%	-0.9%
COC(=O)C1=C(c2ccc(S(C)(=O)=O)cc2)C[C@@H]2CC[C@H]1N2C(=O)N1CCCCC1	-6%	·	·	0.8%
O=Cc1ccc(O)c(O)c1	1%	-4	-37%	-0.5%
COP(=O)(OC)C(NC(=O)/C=C/c1ccccc1)C(Cl)(Cl)Cl (stereo not drawn)	6%	2	-28%	2.1%
CCOC(=O)N(CC)c1ccc(C(O)(C(=O)OCC)C(F)(F)F)cc1 (stereo not drawn)	-8%	1	-6%	5.7%
O=C(Cc1ccccc1)Oc1cccc(-n2cnnn2)c1	-11%	7	-2%	-1.6%
COc1cccc(-c2nn(Cc3ccccc3)cc2C(=O)O)c1	9%	·	-2%	0.8%
Cc1ccsc1C(=O)C1CCCN(Cc2cnc(N)nc2)C1 (stereo not drawn)	2%	-16	2%	0.3%
Cc1c(C(c2ccc(O)cc2)c2c(O)c3ccccc3oc2=O)c(=O)n(-c2ccccc2)n1C (stereo not drawn)	2%	0	1%&-3%	6.5%

Later entries
mol	Rango release inh	GLA inh pH 4.5	miR-21 FLuc	Rango complex inh
CCCN(CC#CCOc1ccc(OC)cc1)CCC	-22%	-4	-5%	1.0%
CC(=O)OC1CCC2(C)C(CCC3C2CC(=O)C2(C)C3CC(N3CC3)C2C(C)=O)C1 (stereo not drawn)	12%	·	·	0.9%
COc1ccc(-n2c(-c3ccccc3)nc3ccccc3c2=O)cc1	0%	6	4%	0.3%
CCC1(c2ccccc2)C(=O)N(COC)C(=O)N(COC)C1=O	-2%	4	-9%	0.8%
COc1cccc(NC(=O)[C@@H](NC(=O)N2C[C@H]3C[C@@H](C2)c2cccc(=O)n2C3)C(C)C)c1	2%	·	3%	-9.6%
Clc1cccc(N2CCNCC2)c1	-9%	1&-3	·	-0.2%
CCN1CCN(C(=O)COc2ccc(S(=O)(=O)Nc3ccc(Cl)cc3)cc2)CC1	-2%	·	2%	0.7%
O=C1NC(=O)C(=Cc2ccc(Oc3ccc([N+](=O)[O-])cc3)cc2)C(=O)N1	4%	-22	-11%	-0.5%
COc1ccc(CCn2c(O)c(/C=N/N3CCOCC3)c(=O)[nH]c2=O)cc1OC	21%	-2	-5%	-0.8%
O=C(Cc1c(Cl)cccc1Cl)N1CCN(Cc2ccccc2)CC1	2%	·	1%	2.6%
Cc1ccc(CNC2=NCCS2)cc1	-3%	-3	-10%	-0.5%
CCCn1c(C(=O)c2ccccc2)nc2ccccc21	17%	13	0%	-0.9%
COc1ccc(NC(=O)CCn2cc(C)c3ccccc32)cc1	-4%	·	-52%	-0.4%
Cc1nnc2ccc(N3CCN(C)CC3)nn12	-9%	-5	-1%	1.8%
COc1ccc(-c2nn(CCC#N)cc2C(=O)Nc2ccccc2Cl)cc1	-4%	·	-4%	-5.5%
O=C(Cc1cccs1)N1CCC2(CC1)OCCO2	-6%	6	-6%	?

One compound at a time, as listed above:
Cc1nnc2ccc(N3CCN(C)CC3)nn12 in the list: Rango release inh = -9%; GLA inh pH 4.5 = -5; miR-21 FLuc = -1%; Rango complex inh = 1.8%
COc1cccc(NC(=O)[C@@H](NC(=O)N2C[C@H]3C[C@@H](C2)c2cccc(=O)n2C3)C(C)C)c1 in the list: Rango release inh = 2%; GLA inh pH 4.5 = ·; miR-21 FLuc = 3%; Rango complex inh = -9.6%
CCCN(CC#CCOc1ccc(OC)cc1)CCC in the list: Rango release inh = -22%; GLA inh pH 4.5 = -4; miR-21 FLuc = -5%; Rango complex inh = 1.0%
